High-throughput results from PubChem BioAssay.
TRPML1 agonist: activates the human TRPML1 channel. 0.12% of 410,000 active. TRPML1-expressing cells, Ca2+ dye fluorescence, FDSS; host cell line not named in the record; reference of the full effect not given here. Q9GZU1. activation, % (test concentration not listed); in the data active = activation above about 50%; inconclusive = about 30% to 50%; inactive = below about 30%; note: 0% is about no effect; the text of the record puts the active cut at 80%
Target sequence (Q9GZU1 whole entry, looked up): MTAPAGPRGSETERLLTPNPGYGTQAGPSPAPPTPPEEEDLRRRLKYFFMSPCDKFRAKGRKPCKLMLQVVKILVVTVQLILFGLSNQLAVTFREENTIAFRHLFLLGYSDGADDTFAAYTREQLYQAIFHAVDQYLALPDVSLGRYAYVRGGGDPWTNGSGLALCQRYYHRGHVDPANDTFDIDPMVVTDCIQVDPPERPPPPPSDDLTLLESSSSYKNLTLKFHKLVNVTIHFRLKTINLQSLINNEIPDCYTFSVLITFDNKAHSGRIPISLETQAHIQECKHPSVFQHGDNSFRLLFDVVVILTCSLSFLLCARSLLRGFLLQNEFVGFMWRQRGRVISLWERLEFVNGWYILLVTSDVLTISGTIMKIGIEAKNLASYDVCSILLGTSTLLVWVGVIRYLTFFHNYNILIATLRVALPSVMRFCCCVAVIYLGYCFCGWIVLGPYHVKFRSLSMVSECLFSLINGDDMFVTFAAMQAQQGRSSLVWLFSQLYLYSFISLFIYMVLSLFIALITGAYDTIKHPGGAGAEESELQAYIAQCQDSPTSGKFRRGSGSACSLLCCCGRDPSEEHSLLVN
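Calcium fluorescence on an FDSS kinetic reader gave the read-out. Tet-induced TRPML1-DL cells were plated overnight, dye-loaded (Ca8 with quencher, 45-90 min, room temperature, dark), then read 110 s after compound addition, and again 110 s after 4uM final 54-4 (EC80).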
gsp antag: antagonizes gsp, the McCune-Albright syndrome mutation; gsp-mutant cells, cAMP HTRF, 30 min; control for the full effect not named in the record; Potency, µM (titrated, usually from 76.9 µM), for the others: at the highest dose activity change, negative = inhibition, actives largely listed as inhibitors; 0.4% of 340,000 active; active = falling curve of any shape with a large fitted effect; inconclusive = falling curve, mostly with a smaller effect; inactive = flat or rising curve; cell line not stated here;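 note: intracellular cAMP measured with PDE inhibitor Ro 20-1724 present during compound exposure; potency is the fitted concentration of half-maximal effect; % is set by controls: 0 for no effect and ±100 for the full control effect; nearly all actives have a fitted effect of over 65% in size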
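Measurement of cellular cAMP by homogeneous time-resolved fluorescence following a 30 min compound exposure at 37C. The PDE inhibitor […] was present throughout; the assay buffer was DPBS with 0.05% BSA and 0.005% Tween 20.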
TRPML1 blocker: blocks the human TRPML1 channel; AID 624415; TRPML1-inducible cells, Ca2+ dye fluorescence, FDSS; hits give low values; inhibition of EC80 agonist-evoked calcium signal; Q9GZU1; activity change, negative = inhibition, % (no concentration beside the values); 0.02% of 390,000 active; in the data active means activity change below about -50%; inconclusive means about -30% to -50%; inactive means above about -30%;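 note: stimulus is agonist 54-4 at its EC80 concentration; % is set by controls: 0 for no effect and ±100 for the full control effect; compound concentration not given in the record; the text of the record puts the active cut at -80%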
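Calcium fluorescence in TRPML1-DL cells induced overnight with Tet: a 110 s read after compound pin addition, then a 110 s antagonist read after challenge with 54-4 at 4 uM final (EC80).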
ClpP mod: qHTS Assay for Activators of ClpP; 1.9% of 340,000 active; Potency, µM (titrated, usually from 57.5 µM), inactives show top-dose activity change, negative = active; ATP-dependent Clp protease proteolytic subunit (Bacillus subtilis (strain 168)), P80244; purified B. subtilis ClpP, FRET peptide cleavage, 20 min; active = well fitted falling curve with a large enough effect; inconclusive = small, poorly fitted or top-dose-only effect; inactive = no such curve, though single readings can be large or run the other way; note: potency is the fitted concentration of half-maximal effect; the source files actives as falling curves though it sought activators and does not explain the sign; nearly all actives have a fitted effect of over 65% in size; many hits overshoot -100%
Target sequence (P80244 whole entry, looked up): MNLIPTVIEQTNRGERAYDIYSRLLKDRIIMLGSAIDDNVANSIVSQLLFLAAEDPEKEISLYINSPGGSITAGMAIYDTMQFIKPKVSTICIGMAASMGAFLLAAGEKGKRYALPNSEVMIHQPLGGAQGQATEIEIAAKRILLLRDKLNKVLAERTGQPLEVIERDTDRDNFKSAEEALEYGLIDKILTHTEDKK
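Purified B. subtilis ClpP, 10 microg/mL final in Tris/HCl pH8 with KCl, BSA, glycerol and Tween-20, cleaved an Abz/nitrotyrosine-quenched decapeptide. Fluorescence (ex 320, em 430) was read at 0 and 20 min at room temperature. Delta was normalized to 5.8 microM ADEP and DMSO/no-enzyme controls.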
gsp ag: gsp mutant agonism | gsp mutant cells, cAMP HTRF, 30 min; control for the full effect not named in the record | 0.13% of 340,000 active | Potency, µM (top dose mostly 76.9 µM), without a hit: top-dose activation (cAMP increase), hits mostly activators; active = well fitted activation curve with a large enough effect; inconclusive = small, poorly fitted or top-dose-only effect, or another doubt; inactive = no such curve, though single readings can be large or run the other way; cell line not stated here;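 note: phosphodiesterase inhibitor Ro 20-1724 added with compounds to block cAMP breakdown; potency is the fitted concentration of half-maximal effect; nearly all actives have a fitted effect of over 60% in size; about a fifth of the inactives were tested at one dose only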
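Cells stably selected in G418 were plated at 2000/well, grown 16-24 hr, then given compounds in DMSO with the PDE inhibitor […] (300 uM solution added) for 30 min at 37C; cAMP was read by HTRF.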
Menin MLL FP FL: inhibitors of human menin-MLL interaction, wild-type MLL peptide. Fluorescence polarization, fluorescein-MLL peptide displacement from menin. FP activity change, % at 61.4 µM. 290,000 tested, under 10 active; inconclusive = falling polarisation curve, or a change in total fluorescence; inactive = total fluorescence flat and polarisation flat or rising; no compound was filed as active; the % refers to the polarisation; negative = inhibition;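 note: % of control where 0% means no effect; inhibitors lower the polarisation; unlabelled MLL peptide was the positive control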
Numbers without * were called inactive; ? = inconclusive; . = not tested or not shown; & = joins results of further samples; [ ] = remark or other dose.

SMILES	ClpP mod	TRPML1 agonist	TRPML1 blocker	gsp ag	gsp antag	Menin MLL FP FL
CC(C)c1ccc(-c2nnc(N)s2)cc1	-9.7%	0.6	41	-54%[inhibitor]	-3%	-1.1
CCn1c(C(C)NC(=O)c2cccc(C)c2)nc2ccccc21 (configuration not stated)	-2.7%	0.1	39	-70%[inhibitor]	8%	-1.9
CCN1CCN(C(=O)C2CCN(c3nnc(C)c4c(C)n(-c5ccc(C)cc5)nc34)CC2)CC1	-11%	1.3	-10	14%	6%	27
COC(C[C@@H]1O[C@@H]1[C@H](O)[C@@H](C)OCc1ccccc1)OC	0.9%	-0.8	37	.	12%	0.0
Cc1[nH]n(-c2ccccc2)c(=O)c1/C=N/N1C(=O)c2cccc3cccc(c23)C1=O	.	1.6	6	4%[15.4 µM]	.	5.0
CCOc1ccccc1N1CCN(C(=O)C(F)(F)F)CC1	1.9%	-0.7	-10	11%	-11%	-0.6
COc1ccccc1NC(=O)N(C)C[C@@H]1OCc2ccccc2-c2c(n(C)c3ccccc23)C(=O)N([C@H](C)CO)C[C@@H]1C	-1.3%	5.2	-10	-57%[inhibitor]	.	.
Cc1ccc(-n2nnc3ccccc3c2=O)cc1C	1.3%	0.3	3	?	3%	1.0
Cc1csc2nc(=O)c3ccccc3n12	11µM*	0.3	12	?	13%	4.1
CC1CCN(C(C)C(=O)Nc2cc(S(=O)(=O)N3CCCCC3)ccc2Cl)CC1 (configuration not stated)	1.2%	0.6	16	13%	0%	.
O=C1CC[C@H](O)CCN1CCSc1ccc(Br)cc1	0.3%&0.5%	-0.8&-0.7	-13	9%	1%	.
COCCn1c(C)cc(C(=O)CSc2ccc3ccccc3n2)c1C	2.3%	2.0	47	11%	-25%	2.2

(more compounds)
SMILES	ClpP mod	TRPML1 agonist	TRPML1 blocker	gsp ag	gsp antag	Menin MLL FP FL
CCOc1ccccc1NC1c2ccccc2C(=O)N1Cc1ccco1 (configuration not stated)	0.7%	0.3	2	-31%[inhibitor]	-8%	2.6
O=S(=O)(Nc1cccc(-c2ccc(N3CCCC3)nn2)c1)c1cc(F)ccc1F	-2.2%	-0.5	-25	.	.	.
COC(=O)c1cc(S(=O)(=O)Nc2nn(C)c3ccccc23)oc1C	-0.1%	0.1	0	10%[15.4 µM]	-8%	3.2
O=C(Nc1ccccc1)c1nc[nH]c1C(=O)N1CCN(c2ccccc2)CC1	6.7%	1.5	8	.	5%	.
Cn1cc(-c2cc(C(=O)O)on2)cn1	-1.2%	0.1	32	-24%	7%	-1.3
CCOC(=O)c1ccc(NC(=O)CC2C(=O)N(c3cccc(OC)c3)C(=O)N2Cc2ccc(OC)cc2)cc1 (configuration not stated)	-0.5%	1.0	-3	.	.	.
Cc1cc(C)cc(N(C(C)C(=O)N2CCOCC2)S(C)(=O)=O)c1 (configuration not stated)	.	0.3	-5	-3%[15.4 µM]	1%	0.5
O=C(CSc1cccc[n+]1[O-])Nc1ccccc1Oc1ccccc1	.	0.0	-19	32%[15.4 µM]	-14%	0.0
CCN(CC)S(=O)(=O)c1ccc(C(=O)NC(=S)N(CCO)Cc2ccccc2)cc1	1.9%	-0.4	-4	-11%	-14%	-4.2
CCC(C(=O)Nc1cnccn1)c1ccccc1 (configuration not stated)	-0.4%	2.2	1	-14%	2%	4.0
Cc1ccc(SCCC(=O)OC(C(=O)NC(N)=O)C(C)C)cc1 (configuration not stated)	.	2.4	-20	3%[15.4 µM]	10%	1.2
COc1ccc(C(=O)CN2C(=O)c3ccccc3C2=O)c(OC)c1C	-1.0%	0.0	-4	5%	-34%	-0.7

Additional results.
SMILES	ClpP mod	TRPML1 agonist	TRPML1 blocker	gsp ag	gsp antag	Menin MLL FP FL
CC(=O)Nc1ccc(NC(=O)Nc2cccc(Cl)c2)cc1	0.7%	-0.4	15	23%	-4%	4.9
O=c1oc2ccccc2c(N2CCOCC2)c1[N+](=O)[O-]	-2.3%	0.1	-5	-37%[inhibitor]	12%	1.3
COc1ccc(-c2csc(Nc3cccc(C)n3)n2)cc1OC	2.1%	2.2	1	13%	.	.
Nc1c(-c2cccc(Cl)c2)cnn1-c1cccc(C(F)(F)F)c1	-1.6%	-0.9	1	?	?	4.0
COc1ccc(N(C(=O)c2snc(C(N)=O)c2N)C(C(=O)NC2CCCC2)c2ccc(C)o2)c(OC)c1 (configuration not stated)	.	2.8	8	-1%	-13%	0.2
CN(c1ccccc1)S(=O)(=O)c1cc(C(=O)c2nccn2C)ccc1Cl	-1.6%	1.6	18	?	?	0.1
COc1ccc(-c2ccc(C(C)=O)cc2)cc1[C@H]1[C@H]2C=CC[C@@H](C)[C@@H]2C(=O)N1Cc1ccccc1	?	0.5	-1	-26%	-4%	2.6
CC(=O)Nc1cccc(NC(=O)c2c(-c3ccccc3)noc2C)c1	-2.2%	-0.9	-22	-52%[inhibitor]	1%	3.9
Cc1ccc(Cl)cc1NC(=O)CSc1nc2ccccc2c2nc(-c3ccccc3)nn12	-3.2%	1.5	-6	.	.	.
Cn1nc(C(=O)Nc2ccc(S(=O)(=O)N3CCOCC3)cc2)c2ccccc2c1=O	0.7%	3.7	-9	-10%	-4%	3.1
COc1ccc(Cc2nnc(NC(=O)C3CCN(C(=O)c4ccco4)CC3)s2)cc1	.	-0.1	7	4%[15.4 µM]	-10%	6.0
COc1ccccc1NC(=O)c1ccc(-n2ccnc2)c([N+](=O)[O-])c1	0.4%	-1.7	17	-2%[15.4 µM]	-20%	-0.5

Next structures:
SMILES	ClpP mod	TRPML1 agonist	TRPML1 blocker	gsp ag	gsp antag	Menin MLL FP FL
O=C(Nc1ccccc1-c1ccccc1)c1cc(C(F)(F)F)cc(C(F)(F)F)c1	-2.1%	-0.8	-1	3%	13%	-0.6
CCOc1ccc(C(C)=O)cc1CSC(=N)N	.	-0.4	7	6%	6%	-2.4
COc1ccc(S(=O)(=O)N2CCOCC2)cc1NC(=O)CN1CCCC1	-5.3%	-0.1	7	24%[15.4 µM]	-15%	-0.5
CN(C)c1ccc(C(C(=O)NCc2ccccc2)N(Cc2cccnc2)C(=O)c2snc(C(N)=O)c2N)cc1 (configuration not stated)	.	1.2	-7	-31%[inhibitor]	-10%	-4.2
CCC(C)Sc1nc2c(c(=O)[nH]1)C(c1cccs1)C1=C(CCCC1=O)N2 (configuration not stated)	-4.4%	0.5	37	-79%[inhibitor]	-16%	0.3
CC1(C)Cc2c(sc(NC(=O)c3ccco3)c2C(=O)O)CO1	-4.0%	0.6	-2	-6%	?	1.8
CCOc1ccc(-c2nc(Cn3ccn4nc(-c5ccc(OCC)c(Cl)c5)cc4c3=O)c(C)o2)cc1	-3.4%	0.1	7	.	.	.
CCn1cc(C(=O)NCCCN2CCCC(C)C2)c(=O)c2cc(S(=O)(=O)N(C)C3CCCCC3)ccc21 (configuration not stated)	-6.3%&-2.3%	0.5&-0.7	5&-7	-110%[inhibitor]	-2%	8.1
O=C(Nc1ccc2c(c1)CCC2)C1CCN(c2c3c(nc4ncnn24)CCC3)CC1	0.3%	4.7	10	28%	-34%	1.5
O=C(CNC(=O)c1ccccc1)Sc1ccccc1	.	-0.7	18	?	2%	.
Cc1c(/C=C(\C#N)C(=O)Nc2cccc(Cl)c2)c2ccccc2n1Cc1ccccc1Cl	-3.2%	0.6	-3	.	.	.
Cc1cc(C)cc(NC(=O)CSc2nnc(CNC(=O)c3ccco3)n2C)c1	-1.3%	-0.7	-3	-74%[inhibitor]	7%	.

(more compounds)
SMILES	ClpP mod	TRPML1 agonist	TRPML1 blocker	gsp ag	gsp antag	Menin MLL FP FL
CC(C)c1ccc(N(CC(=O)Nc2ccc(S(=O)(=O)N3CCOCC3)cc2)S(C)(=O)=O)cc1	-2.4%	0.6	20	-32%[inhibitor]	-7%	6.1
COc1ccc(C(=O)CCC(=O)NCCc2c[nH]c3ccccc23)cc1OC	.	-0.8	-12	?	-24%	2.9
C=C(C)CSC1=C(C#N)C(c2ccccc2)CC(=O)N1 (configuration not stated)	-0.1%	-0.3	-7	?	2%	.
Cc1ccc(C(=O)CCC(=O)OCC(=O)Nc2cc(S(=O)(=O)N(C)C)ccc2C)cc1	-1.6%	0.1	-14	1%	.	.
Cc1cccc(N(C)c2ncnc3onc(-c4ccc(F)cc4)c23)c1C	-9.1%	1.8	9	6%	-8%	0.8
CCOC(=O)C1=C(C)C2C3C(=O)N(c4ccc(C)cc4C)C(=O)C3C1(C)C1C(=O)N(c3ccc(C)cc3C)C(=O)C21 (configuration not stated)	3.1%	1.0	6	0%	-5%	3.0
Nc1c(C(=O)Nc2ccc(S(=O)(=O)N3CCCC3)cc2)sc2nc3cc4c(cc3cc12)CCC4	25µM*	2.9	3	15%[15.4 µM]	19%	?
O=C1c2ccccc2[C@@H]2C[C@@H](O)[C@H](Nc3cccc(C(F)(F)F)c3)CCN12	1.4%	-0.9	-4	.	-3%	.
Cc1ccccc1NC(=O)C1CC(=O)OC12CCOC(C)(C)C2 (configuration not stated)	.	-0.5	-6	22%[15.4 µM]	-40%	0.0
O=C(Cc1ccc(-c2ccccc2)cc1)NCCS(=O)(=O)N1CCN(c2cccc(Cl)c2)CC1	-1.0%	1.2	-6	.	.	.
CCOc1ccc(-n2ccc(=O)c(C(=O)O)n2)cc1	.	0.2	-12	-3%	-12%	-1.5
CC(=O)Oc1ccc2oc(=O)c3c(c2c1)CCCN3C(=O)CN1CCOCC1	-4.3%	1.4	39	20%	1%	-0.6

(continued)
SMILES	ClpP mod	TRPML1 agonist	TRPML1 blocker	gsp ag	gsp antag	Menin MLL FP FL
O=C(N/N=C/c1ccc(Cl)cc1)Nc1ccccc1	-2.9%	1.7	0	5%	4%	0.9
COCCCNC(=O)c1ccc(-c2nc3ccccc3nc2-c2ccccc2)cc1	3.8%	4.9	-1	10%	-13%	.
O=C(CS(=O)CC(=O)N(CC(=O)NC1CCCC1)C1CCCCC1)Nc1ccc(F)cc1 (configuration not stated)	-0.9%	-0.6	10	-9%	-4%	0.4
O=C(C1CC1)N1CCc2cc(Br)cc(S(=O)(=O)NCc3ccc4c(c3)OCO4)c21	-0.8%	-0.9	-9	-1%	-19%	2.5
CC1Cc2ccccc2N1C(=O)CSc1nnnn1C1CCCC1 (configuration not stated)	0.7%	-0.1	2	10%	11%	4.9
Cc1noc(-c2ccccc2OCC(=O)Nc2ccccc2[N+](=O)[O-])n1	1.5%	-1.1	0	.	.	.
CCc1nc(Nc2ccccc2)c2nnn(Cc3ccccc3)c2n1	?	0.6	15	3%	-11%	1.4
COc1ccccc1N(CC(O)CN1CCC(C)CC1)S(=O)(=O)c1ccccc1 (configuration not stated)	.	0.0	23	-5%	10%	.
Cn1c(=O)c2c(nc(NCc3cccnc3)n2Cc2ccc(Cl)cc2)n(C)c1=O	3.2µM*	0.0	-6	-50%	12%	1.7
